Screens: PubChem, National Center for Advancing Translational Sciences (NCATS)
TRPML1 inh – human mucolipin-1 channel inhibition. Q9GZU1. TRPML1-inducible cells, Ca2+ dye fluorescence, FDSS; stronger effect = lower value; inhibition of EC80 agonist-evoked calcium signal. activity change, negative = inhibition, % (test concentration not listed). hit rate 0.02% among 390,000. AID 624415; in the data active means activity change below about -50%; inconclusive means about -30% to -50%; inactive means above about -30%;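 further: stimulus is agonist 54-4 at its EC80 concentration; on the % scale 0 is the no-effect control and ±100 the full control effect; compound concentration not given in the record; the text of the record puts the active cut at -80%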
Target sequence (Q9GZU1 whole entry, looked up): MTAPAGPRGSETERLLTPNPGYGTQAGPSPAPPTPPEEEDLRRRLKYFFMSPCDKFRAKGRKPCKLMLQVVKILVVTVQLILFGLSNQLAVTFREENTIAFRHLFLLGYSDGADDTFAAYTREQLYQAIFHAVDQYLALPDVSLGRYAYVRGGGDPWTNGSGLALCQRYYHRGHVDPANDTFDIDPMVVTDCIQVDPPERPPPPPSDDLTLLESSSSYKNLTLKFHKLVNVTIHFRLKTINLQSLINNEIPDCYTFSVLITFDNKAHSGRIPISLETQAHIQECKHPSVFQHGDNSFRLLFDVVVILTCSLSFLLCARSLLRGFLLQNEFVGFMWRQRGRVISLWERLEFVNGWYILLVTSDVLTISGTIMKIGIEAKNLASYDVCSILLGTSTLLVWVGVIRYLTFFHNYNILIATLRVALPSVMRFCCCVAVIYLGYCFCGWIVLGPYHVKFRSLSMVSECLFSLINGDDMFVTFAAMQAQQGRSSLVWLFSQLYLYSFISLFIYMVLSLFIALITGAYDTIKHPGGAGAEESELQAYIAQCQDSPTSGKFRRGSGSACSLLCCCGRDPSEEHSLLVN
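Calcium fluorescence in TRPML1-DL cells induced overnight with Tet: a 110 s read after compound pin addition, then a 110 s antagonist read after challenge with 54-4 at 4 uM final (EC80).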
Sfp inh – blocks B. subtilis Sfp PPTase activity; Biochemical Sfp PPTase activity, qHTS; Potency, µM, without a hit: max response, negative = inhibition, most hits filed as inhibitors; hit rate 3.5% among 310,000; active means well fitted inhibition curve with a large enough effect; inconclusive means small, poorly fitted or top-dose-only effect, or another doubt; inactive means no such curve, though single readings can be large or run the other way;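 further: the enzyme is Sfp with the accession as filed and its product quenches rhodamine fluorescence; potency means the concentration at half of the fitted maximal effect; 0% = enzyme reaction without inhibitor and -100% = no enzyme wells; top concentration of the series not given in the record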
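Fluorescence-quenching assay with 15 nM Sfp, 5 uM rhodamine-CoA and 12.5 uM BHQ-2-labelled ybbR peptide in pH 7.6 Hepes/MgCl2 buffer. Enzyme was pre-incubated with compound for 15 min at room temperature. Rate was taken from the 30-min fluorescence change (525/598 nm).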
ClpP mod – qHTS Assay for Activators of ClpP; purified B. subtilis ClpP, FRET peptide cleavage, 20 min; Potency, µM (doses to about 57.5 µM), for inactives: at the top dose activity change, negative = active; hit rate 1.9% among 340,000; ATP-dependent Clp protease proteolytic subunit (Bacillus subtilis (strain 168)), P80244; AID 651965, 2013; active = well fitted falling curve with a large enough effect; inconclusive = small, poorly fitted or top-dose-only effect; inactive = no such curve, though single readings can be large or run the other way; further: potency means the concentration at half of the fitted maximal effect; the source files actives as falling curves though it sought activators and does not explain the sign; nearly all actives have a fitted effect of over 65% in size; many hits overshoot -100%
Target sequence (P80244 whole entry, looked up): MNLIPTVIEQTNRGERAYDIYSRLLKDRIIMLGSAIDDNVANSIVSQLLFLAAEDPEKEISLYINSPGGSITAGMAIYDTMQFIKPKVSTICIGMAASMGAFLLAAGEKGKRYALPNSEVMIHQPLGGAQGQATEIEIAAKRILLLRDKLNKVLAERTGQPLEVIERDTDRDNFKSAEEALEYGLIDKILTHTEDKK
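Buffer: 100 mM Tris/HCl pH8, 100 mM KCl, 0.05% low protease BSA, 2.5% glycerol, 0.01% Tween-20. ClpP 10 microg/mL final; 20 min RT; delta FRET normalized to ADEP and DMSO controls.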
TRPML1 ag – human mucolipin-1 channel agonism; Q9GZU1; hit rate 0.12% among 410,000; activation, % (concentration not given with the values); TRPML1-expressing cells, Ca2+ dye fluorescence, FDSS; host cell line not named in the record; reference of the full effect not given here; in the data active = activation above about 50%; inconclusive = about 30% to 50%; inactive = below about 30%; further: 0% is about no effect; the text of the record puts the active cut at 80%
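TRPML1-DL cells, Tet-induced overnight (~16 h, 37 degrees C), loaded 45-90 min at room temperature with Ca8 no-wash calcium dye plus quencher. FDSS fluorescence: 10 s baseline, compound pin-transfer, 110 s agonist read, then EC80 54-4 (4uM final) and 110 s antagonist read.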
TRPV1 PAM – potentiators of human vanilloid receptor 1 (TRPV1). potentiation, % at 8.33 µM. hit rate 0.02% among 320,000. TRPV1-expressing cells, Fluo-8 calcium influx, capsaicin EC20 potentiation; host cell line not named in the record; control for the full effect not named in the record; active means potentiation above 80%; inconclusive means 30% to 80%; inactive means below 30%; further: 0% is about no effect
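Fluo-8 calcium influx in TRPV1-expressing cells, kinetic read (ex 480/em 520 nm). Compound added and read 3 min for agonist activity, followed by capsaicin at EC20 final and 2 min further read for enhancement.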
PINK1 modulator – modulators of PINK1 expression; AID 624263; PINK1 immunofluorescence, high-content cytometry, 24 h; hit rate 0.2% among 410,000; Potency, µM (doses to about 76.6 µM), for the others: at the highest dose activation (PINK1 increase), actives largely listed as activators; active = well fitted activation curve with a large enough effect; inconclusive = small, poorly fitted or top-dose-only effect; inactive = flat fitted curve, though single readings scatter; cell line not stated here;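 further: potency means the concentration at half of the fitted maximal effect; % of control where 0% means no effect; nearly all actives have a fitted effect of over 65% in size; a mitochondrial uncoupler was the plate control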
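PINK1 protein level read as immunofluorescence by microplate cytometer in a fixed, stained stable cell line after 24 h exposure to five compound concentrations, with CCCP as control.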
Menin MLL FP FL – inhibitors of human menin-MLL interaction, wild-type MLL peptide | AID 1766 | Fluorescence polarization, fluorescein-MLL peptide displacement from menin | FP activity change, % at 61.4 µM | 290,000 tested, under 10 active; inconclusive = falling polarisation curve, or a change in total fluorescence; inactive = total fluorescence flat and polarisation flat or rising; no compound was filed as active; the % refers to the polarisation; negative = inhibition;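 further: % of control where 0% means no effect; inhibitors lower the polarisation; unlabelled MLL peptide was the positive control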
* = called active by the depositor; ? = inconclusive; . = not tested or not shown; & = joins results of further samples; [ ] = another dose, or the depositor's remark.

Compound	TRPML1 inh	Sfp inh	ClpP mod	TRPML1 ag	TRPV1 PAM	PINK1 modulator	Menin MLL FP FL
CCCCN(C(=O)CCCSc1nc2ccccc2[nH]1)c1c(N)n(Cc2ccccc2)c(=O)[nH]c1=O	14	2%	-2.8%	0.6	4	2.3%	-5.0
COCCn1c(=O)c(-c2cccs2)nc2cnc(Oc3ccccc3)nc21	.	4%	.	.	.	1.0%	-0.2
CC1=C(C(=O)OCC2CCCO2)C(c2coc3ccccc3c2=O)C2=C(CCCC2=O)N1 (stereo not drawn)	12	7%	-2.4%	-0.3	2	1.5%	0.0
CSCCC(NS(=O)(=O)c1ccc2c(c1)oc(=O)n2C)C(=O)NCc1ccccc1 (stereo not drawn)	5&-11	2%	-1.4%	0.9&-0.4	6	5.1%&1.7%	0.9
O=c1c2ccccc2nc(SCc2cn3ccsc3n2)n1-c1ccccc1	54	-8%	-2.1%	2.5	-3	4.8%	3.3
COc1ccc(-c2cc(C(=O)NC(C)c3ccccn3)c3ccccc3n2)cc1OC (stereo not drawn)	14	.	-14%	0.1	9	0.1%	.
C[C@@H]1CN([C@H](C)CO)S(=O)(=O)c2ccc(Br)cc2O[C@H]1CN(C)S(C)(=O)=O	7	.	0.3%	0.6	.	-1.8%	.
CCCCn1nc(C(=O)N(CCOC)c2c(N)n(CCCC)c(=O)[nH]c2=O)c2ccccc2c1=O	7	.	-1.1%	2.6	-5	0.6%	.
O=S(=O)(NC(=S)NC1CCCCC1)c1cccs1	-11	?	.	-0.3	4	0.2%	-3.1
Cc1nc(-c2ccc(F)cc2)sc1CCNC(=O)c1ccc(OC(C)C)cc1	17	.	4.3%	2.7	.	4.1%	.
COc1ccccc1OCc1ccc(C(=O)NC(C)(C)C)o1	21	-11%	3.3%	-2.0	13	4.4%	0.9
CCC(=O)Nc1ccc2c(c1)C(=O)c1ccccc1C2=O	-5	6%	0.4%	-0.2	5	4.5%[38.3 µM]	-9.1
CCc1noc(C)c1C(=O)NCCc1ccc(Cl)cc1	14	.	.	-0.6	-6	3.3%	.
Cc1ccc(OCc2nc(-c3ccc(C(=O)N4CCN(c5cccc(C(F)(F)F)c5)CC4)cc3)oc2C)cc1	-6	.	-8.7%	1.6	.	0.9%	.
CC(CCc1ccccc1)NC(=O)CNC(=O)c1cccs1 (stereo not drawn)	19	22%	1.0%	0.1	-1	1.1%	.
CCC(=O)Nc1cccc(NC(=S)NC(=O)c2ccc(C)cc2)c1	-13	?	-1.9%	1.7	7	1.4%	-1.0
COc1ccc2cc3cc(C(=O)NCCN4CCc5ccccc5C4)oc3nc2c1	-2	-4%	?	-0.8	20	0.0%	-1.2
Cc1[nH]nc2nc(SCC(=O)NCC3CCCO3)n(-c3ccc(Br)cc3)c(=N)c12 (stereo not drawn)	14	25%	-5.5%	0.3	1	0.4%	-5.4
CC1(C)CC(NC2C3CC4CC(C3)CC2C4)CC(C)(C)N1 (stereo not drawn)	9	8%	.	0.3	-6	-1.1%	-1.4
CN(Cc1ccc(Cl)cc1)C(C(=O)NC1CCCCC1)c1ccnc2ccccc12 (stereo not drawn)	.	.	-6.1%	-0.5	.	11%	.
Cc1sc2ncn(CC(=O)N3CCC(C(N)=O)CC3)c(=O)c2c1S(=O)(=O)N1CCOCC1	19	23%	.	-0.6	-4	2.2%	5.0
NS(=O)(=O)c1ccc(NC(=O)c2ccc(Cl)c(S(=O)(=O)NCc3ccco3)c2)cc1	6	.	1.9%	-0.4	17	-1.0%	.
COc1ccccc1Cn1nnc2c(=O)[nH]c(C3CCN(C(=O)c4ccc(C)cc4)CC3)nc21	20	-10%	-2.2%	-0.6	-4	0.3%	1.4
COc1ccc(N(C(=O)c2ccc(C)cc2)S(=O)(=O)c2cccs2)cc1	52	2%	1.6%	3.1	-8	-1.2%	0.0
O=S(=O)(NCc1cc(-c2ccccc2)no1)c1ccc(Cl)cc1	2	6%	-2.0%	2.0	.	1.5%	0.3
CCc1ccc(C(=O)c2cn(CC(=O)Nc3ccc(OC)cc3)c3cc4c(cc3c2=O)OCO4)cc1	-4	.	-1.8%	-0.5	.	-0.2%	.
O=[N+]([O-])c1ccc2nc(/C=C/c3ccc(Cl)cc3)[nH]c2c1	-2	-14%	-1.8%	0.6	-10	?	2.5
CC(C)C(NS(=O)(=O)c1cccc2nsnc12)C(=O)N1CCc2ccccc2C1 (stereo not drawn)	29	19%	0.1%	-0.1	-24	-0.7%[38.3 µM]	-2.6
C=CCn1c(-c2ccccc2OC)n[nH]c1=S	-1	7%	-2.2%	-0.4	6	1.6%	0.5
O=C(NCc1ccco1)/C(=C/C=C/c1ccccc1)NC(=O)c1ccco1	-4	-6%	-0.6%	3.8	-7	-1.0%	-1.5
CC1(C(=O)Nc2ccc3c(c2)OCCO3)CCN1C(=O)CC1CCCC1 (stereo not drawn)	.	.	1.8%	-0.8	.	1.5%	.
CCCn1c(=O)c(C(=O)NCc2ccncc2)c(O)c2ccccc21	-3	8%	-12%	-1.6	-10	-1.3%	2.9
COc1cc2c(cc1OC)C(C)N(C(=O)c1cc3c(s1)-c1c(C)cccc1OC3)CC2 (stereo not drawn)	44	-23%	3.9%	2.3	-10	-1.1%	3.1
Cc1sc2nc(SCC(=O)Nc3ccc(Cl)c(C(=O)O)c3)[nH]c(=O)c2c1C	1	.	.	-0.1	.	0.0%	.
N#CC1=C(N)Nc2ncnn2C1c1ccc(F)cc1 (stereo not drawn)	23	5%	-1.3%	0.7	-14	1.8%	3.4
COc1ccc(CCNC(=O)C2(C)CCC(=O)N2Cc2ccc3c(c2)OCO3)cc1OC (stereo not drawn)	2	-6%	-0.5%	-0.4	-6	0.7%	-1.5
NNC(=O)CCc1ccc(S(=O)(=O)N2CCOCC2)cc1	-8	12%	1.9%	-0.6	28	3.0%	-1.2
c1ccc(OCCOc2ncnc3sccc23)cc1	7	19%	-0.5%	-0.4	-2	-0.6%	0.8
CNC(=O)c1[nH]cnc1C(=O)N[C@@H](C)C(=O)OCc1ccccc1	27	-13%	2.0%	-0.8	-7	1.3%	0.5
COc1ccc(NC(=O)c2ccc(COc3ccccc3Br)o2)c(OC)c1	-2	.	-30%	3.4	.	8.9%	.
COc1cccc(CNCCSc2nnnn2C)c1OCc1ccc(Cl)cc1Cl	5	.	1.0%	-0.8	.	0.8%	.
CSc1ccc(C(=O)C2CCCN(C(=O)c3cccc(N4CCOCC4)c3)C2)cc1 (stereo not drawn)	-3	-6%	.	0.5	-18	-1.6%	-1.3
COc1ccc(Cc2nc3ccc(C(=O)NC(C)Cc4ncccc4C)cc3o2)cc1OC (stereo not drawn)	10	13%	-0.2%	0.8	16	1.9%	.
Cc1ccc(C)n1-c1c(C(=O)NN)cnn1-c1ccccc1	4	8%	.	0.7	-40	1.8%	-3.0
CCc1cc(=O)oc2cc(OC(=O)CN3C(=O)NC4(CCCC4)C3=O)ccc12	-7	7%	1.0%	0.0	16	-0.5%	.
CC(C)NC(=O)N(C)C[C@H]1Oc2c(NS(=O)(=O)c3cn(C)cn3)cccc2C(=O)N([C@H](C)CO)C[C@@H]1C	-3	.	-0.6%	-0.4	.	0.6%	.
CCCn1c(CNC(=O)c2ccc(F)cc2)nc2ccccc21	-6	.	1.7%	-0.6	.	0.2%	.
O=C(COc1ccccc1F)Nc1nnc(C2CCCC2)s1	-2	9%	1.2%	-0.1	18	3.9%	.
COC(=O)C1CCN(S(=O)(=O)c2cc3c4c(c2)CC(=O)N4CCC3)CC1	-4	.	-2.7%	-0.7	.	3.1%	.
CCCCOc1ccc(C(=O)N/C(=C/C=C/c2ccccc2)C(=O)O)cc1	16	-11%	.	0.4	-2	-0.3%	-0.2

More compounds.
Compound	TRPML1 inh	Sfp inh	ClpP mod	TRPML1 ag	TRPV1 PAM	PINK1 modulator	Menin MLL FP FL
CN1C[C@@H]2C(c3ccc(C(F)(F)F)cc3)C3(c4cccnc4)CC2(C3)[C@H]1c1ccccc1 (stereo partly drawn)	-4	11%&0%	-1.4%	-0.7	-22	14%	-2.0&2.9
NS(=O)(=O)c1ccc(CCNC(=O)CNC(=O)Cc2cccc3ccccc23)cc1	3	5%	-0.2%	3.6	2	-1.0%	2.8
Clc1cc(Cl)c(OCc2nc(-c3ccccn3)no2)cc1Cl	-8	10%	-3.7%	3.0	0	7.7%	1.9
Cc1cccc(-c2nc(CN3CCCC(C(=O)NCc4ccc(Cl)cc4)C3)c(C)o2)c1 (stereo not drawn)	10	.	0.2%	0.9	.	14%	.
Cc1ccc(C(=O)Nc2ccc3oc(-c4cc(Br)ccc4Cl)nc3c2)cc1	-4	.	?	-0.6	.	4.0%	.
COc1ccccc1NC(=O)c1ccc(NC(=O)CN2C(=O)CN(C)C2=O)cc1	-16	15%	.	-0.5	4	0.8%	1.8
CCC(=O)N1CCN(c2ccccc2NC(=O)COc2cc(C)ccc2C(C)C)CC1	9	-14%	-0.5%	-0.4	-7	0.9%[38.3 µM]	-0.7
Cc1ccc2cc(CN(CCCN(C)C)C(=S)NCc3ccccc3)c(=O)[nH]c2c1C	-25	3%	.	2.9	7	-1.9%	-2.7
Cc1ccc2ccccc2[n+]1CCCS(=O)(=O)[O-]	19	24%	?	2.8	2	-2.8%	-0.4
Cn1c(CNC(=O)c2ccc(F)cc2)cc2ccccc21	.	23%	-3.5%	.	-22	0.2%	-2.4
O=C(Nc1ccc2nc3n(c(=O)c2c1)CCCCC3)c1c(F)ccc([N+](=O)[O-])c1F	-5	-4%	.	1.9	0	-1.3%	.
CCOC(=O)C(CC)/C(C)=N\NC(=O)c1cccc(C)c1 (stereo not drawn)	-5	7%	-1.4%	0.6	-5	0.6%	3.2
CC(C)CCOc1ccc(C(=O)NCCC(=O)N2CCOCC2)cc1	-3	18%	2.2%	-0.2	5	1.7%[38.3 µM]	3.9
O=C(OCc1ccc(Cl)cc1Cl)c1cccnc1Cl	16	-6%	-1.9%	0.3	0	-0.8%	2.0
